AID504770: growth inhibition of E. coli YBA685, primary screen, V. cholerae RctB inhibitors | E. coli YBA685 rctB-dependent plasmid, OD600 growth, 3 h; hits give low values | z-score (no concentration beside the values) | 0.27% of 130,000 active | AID 504770, 2011;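 active = z-score under -2 on both plates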;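 also: wells of about 30 µL received 100 nL stock; score is relative to mean and SD of the test wells; the first replicate is given; strong numbers were not always called active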
CapD inh: Bacillus anthracis CapD inhibitors, primary screen, biochemical, fluorescence intensity; 0.23% of 140,000 active; z-score (test concentration not listed); CapD gamma-glutamyltranspeptidase (Bacillus anthracis Ames Ancestor); purified CapD enzyme, fluorescence intensity read-out; hits give low values; some hits fall short of the stated cut;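 active = z-score under -4 in either of two replicates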;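 also: stock transfer was 100 nL into about 40 µL; score is relative to mean and spread of the plate; one replicate is shown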
* = called active by the depositor; / = no result given; & = joins results of further samples.

| molecule | CapD inh | AID504770 |
| --- | --- | --- |
| Cc1ccc(C(=O)O)cc1-n1c(C)ccc1C | -2 | -0.4 |
| COCCNC(=O)c1ccc(CS(=O)(=O)c2c(Cl)cccc2Cl)o1 | 0.54 | 0.1 |
| NCCc1nc(-c2ccccc2)no1 | / | -0.1 |
| CC(=O)N1c2ccccc2N=C(c2ccc(Cl)cc2)CC1c1ccc(Cl)cc1 (centres undefined) | -0.3 | / |
| COc1ccnc(N=CNOCc2cccc(C(F)(F)F)c2)c1C#N | 0.31 | / |
| Cc1ccc2c(c1)CCCN2C(=O)c1c(-c2c(Cl)cccc2Cl)noc1C | -0.53 | / |
| CC1CCC(C(C)C)C(N(Cc2ccccc2)C(=O)c2cccs2)C1 (centres undefined) | 0.055 | -1.2 |
| O=C(COCc1cc(-c2ccco2)on1)N1CCCCC1 | 0.69 | -0.85 |
| O=C(CSc1ncnc2ccccc12)N1N=C2/C(=C/c3ccco3)CCCC2C1c1ccco1 (centres undefined) | / | -0.1 |
| COc1cc(OC)nc(CSCCNC(=O)c2ccc(S(C)(=O)=O)cc2Cl)n1 | -0.21 | / |
| COc1ccc(-c2coc3cc4oc(=O)c5c(c4cc23)CCCCC5)cc1 | 1.2 | -1.2 |
| CCCCc1cc2ccccc2c(OCCN(C)C)n1 | -0.87 | / |
| CCn1c(SCC(=O)OCc2c(C(=O)OC)sc(N)c2C(=O)OC)nnc1-c1cccs1 | / | 2 |
| Cc1ccc2nc(-c3cc(-c4ccccc4)no3)cn2c1 | 1.6 | -0.2 |
| CCOC(=O)CSc1nc(N)c2c3c(sc2n1)CCCC3 | 1.3&0.63 | 0.75&-0.1 |
| Nc1cc(=O)[nH]c2n[nH]c(=S)n12 | / | -0.4 |
| NC(=O)c1ccccc1OCc1ccc(F)cc1Cl | / | 1.4 |
| Cc1oc(C(O)C(O)C(O)CO)cc1C(=O)O (centres undefined) | / | -0.2 |
| N#CC1=C(O)CCCn2c1nc1ccccc1c2=O | / | -0.9 |
| Cc1nc2cc(C(=O)NCc3ccccn3)ccc2n1-c1ccc(OCc2ccccc2)cc1 | 0.015 | / |

Complete entries, looked up by structure. Screens in order: CapD inh, AID504770
O=C(CSc1ncnc2ccccc12)N1N=C2/C(=C/c3ccco3)CCCC2C1c1ccco1 (centres undefined) as listed: /, -0.1
NC(=O)c1ccccc1OCc1ccc(F)cc1Cl as listed: /, 1.4
CC1CCC(C(C)C)C(N(Cc2ccccc2)C(=O)c2cccs2)C1 (centres undefined) as listed: 0.055, -1.2
CC(=O)N1c2ccccc2N=C(c2ccc(Cl)cc2)CC1c1ccc(Cl)cc1 (centres undefined) as listed: -0.3, /
N#CC1=C(O)CCCn2c1nc1ccccc1c2=O as listed: /, -0.9

Continued:
| molecule | CapD inh | AID504770 |
| --- | --- | --- |
| CC(C)c1nc2ccc(Cl)cc2c2c1C(=O)N(NC(=O)c1csc(Cn3cnc(Cl)c3Cl)n1)C2=O | 0.14 | / |
| C=CCn1c(SCC(=O)Nc2sc3c(c2C(N)=O)CCC3)nc2sc3c(c2c1=O)CCCC3 | -0.65 | / |
| O=C(NCCC1=CCCCC1)c1ccc(Cn2c(=S)[nH]c3cc4c(cc3c2=O)OCO4)cc1 | 0.015 | 2.3 |
| CC(C)(C)OC(=O)CSc1nc2ccccc2c(=O)[nH]1 | / | -0.3 |
| CC1CCN(c2cc(N3CCN(C(=O)c4ccc(F)c(F)c4)CC3)c([N+](=O)[O-])cc2F)CC1 | -0.28 | / |
| N#CC1=C(N)Oc2c(c(=O)oc3ccccc23)C1c1ccc(Br)s1 (centres undefined) | -0.33 | / |
| CCC1C/C(=C/c2ccco2)C(=O)/C(=C/c2ccco2)C1 (centres undefined) | -2.5 | 0.1 |
| Cc1cc(C)c(NC(=O)COC(=O)c2nccnc2N)c(Cl)c1 | / | -0.4 |
| CC1=NN(c2cccc(Cl)c2)C(=O)/C1=C\c1cc(Br)cs1 | -0.015 | / |
| Cn1c(=O)[nH]c(=O)c2c1ncn2Cc1ccccc1 | -0.12 | / |
| NC(Cc1ccc2nonc2c1)C(=O)O (centres undefined) | / | 2 |
| O=C(O)c1ccc(-c2ccc(CO)o2)cc1 | 94 | -1.3 |
| CC(=O)Nc1ccc(S(=O)(=O)Nc2ccc(C#N)cc2)cc1 | 0.75 | -0.1 |
| CCc1ccc(N2C(=O)Nc3ccccc3S2(=O)=O)cc1 | / | -0.55 |
| FC(F)(F)c1cccc(NC(=S)Nc2cccc(C(F)(F)F)c2)c1 | -0.38 | / |
| COc1ccc(C)cc1S(=O)(=O)n1nnc2cc(Cl)ccc21 | 0.46 | / |
| CN(C)S(=O)(=O)c1ccc(OCC(=O)O)cc1 | / | -0.75 |
| Nc1nnc(SCc2nnc(-c3cccs3)o2)s1 | / | -0.4 |
| Cc1ccnc(NC2CCCCC2)c1 | 58 | -2.9 |
| Cc1cc(=O)[nH]c(S)c1C#N | / | -0.65 |
| COc1ccc(-n2nc(C(=O)N(C)C3CCCCC3)c3ccccc3c2=O)c(OC)c1 | -0.21 | 0.75 |
| C=CCNC(=O)c1cc(=O)c2ccccc2o1 | 0.13 | -0.7 |
| COc1ccc(/C=C2/SC(=O)N(CCC(=O)Nc3ccccc3)C2=O)cc1OC | 0.22 | / |
| C=CCSc1nnc(CNS(=O)(=O)c2ccc(Cl)cc2)n1C | 0.34 | / |
| Cc1csc(NC(=O)C(F)(F)F)c1C#N | -0.43 | -1.1 |
| C=CCc1c(C)c2ccc(OC(C)=O)cc2oc1=O | 32 | -0.45 |
| COc1ccc2[nH]c(=S)[nH]c2c1 | 0.42 | / |
| CCOC(=O)C1CCCN(C(=O)CSc2ccc(Cl)cc2)C1 (centres undefined) | 0.085 | -0.75 |
| CCOC(CCn1c(SCc2cccc(F)c2)nc2ccccc2c1=O)OCC | 1.8 | 0.15 |
| Cc1ccc(C(=O)Oc2cccc3[nH]ccc23)cc1 | -0.77 | -0.8 |
| CCc1ccc(NC(=O)c2cnn3c(C(F)F)cc(C)nc23)cc1 | / | 1.9 |
| N#CCn1cc(/C=C2\C(=O)NC(=O)N(c3cccc(F)c3)C2=O)c2ccccc21 | 9.4 | 1.9 |
| CCCC(=O)N1c2ccccc2C2=C(SC(C(=O)OC)=C(C(=O)OC)C23SC(C(=O)OC)=C(C(=O)OC)S3)C1(C)C | -0.79 | / |
| COc1cc([N+](=O)[O-])c(OC)cc1SCC(=O)NN | -1.6 | / |
| CCN1C(=O)NC(c2ccccc2)C1=O (centres undefined) | -0.45 | / |
| C=CCNC(=O)Cn1c(=S)[nH]c2ncccc2c1=O | -0.76 | 2 |
| O=C(NCc1ccc(F)cc1)c1ccc(O)cc1 | / | 0.2 |
| O=C(O)c1c2c(nc3ccccc13)Cc1ccccc1-2 | / | -0.4 |
| O=c1oc(-c2ccccc2)nc2sc3c(c12)CCCCC3 | 0.02 | / |
| Cc1c(/C=C2/C(=O)Nc3ccc(Cl)cc32)cc(C#N)n1C | / | 0.25 |
| O=C1CSC(=S)N1/N=C/c1cccnc1 | -4* | -0.4 |
| O=C(NCCCn1ccnc1)c1ccc(CN2CCc3ccccc3C2)cc1 | / | -0.55 |
| CN1C(=O)/C(=C\C=C\c2ccccc2)SC1=S | 0.34 | -0.15 |
| NS(=O)(=O)c1ccc2c(c1)CCN2 | / | -0.45 |
| CC(=O)Nc1[nH]c2ccccc2c1O | 0.3 | -0.95 |
| CC1(C)OC(C(=O)NC2CCCCC2)C(C(=O)NC2CCCCC2)O1 (centres undefined) | -0.32 | -0.1 |
| COC(=O)c1c[nH]n2c(NC3CCCCC3)c(-c3cccc(Br)c3)nc12 | -0.045 | -0.35 |
| CCc1cc2c(=O)n(Cc3ccco3)c(SCC(=O)Nc3ccc(F)cc3F)nc2s1 | / | 0.3 |
| Cc1cn(CCC(=O)O)c(=O)[nH]c1=O | 0.62 | -0.4 |
| COCC(C)NCc1cc(F)ccc1F (centres undefined) | / | -0.15 |
| CCc1cc(=O)oc2c(C)c3c(cc12)CN(Cc1ccco1)CO3 | 25 | 0.3 |
| COc1ccccc1NS(=O)(=O)c1ccccc1 | -1.2 | -0.65 |
| O=C(COC(=O)c1cc2ccccc2cc1O)NCc1ccccc1 | 1.4 | 0.25 |
| O=C(CSc1nc2cc(C(=O)NCCCN3CCOCC3)ccc2c(=O)n1CC1CCCO1)Nc1nccs1 (centres undefined) | 0.73 | / |
| CCOC(=O)n1cc(C(=O)c2ccccc2O)cn1 | / | 0.6 |
| CC(=O)OCCn1nc(-c2ccccc2)c2ccccc2c1=O | 0.12 | -1.1 |
| CCc1cc2c(NCCCC(=O)O)ncnc2s1 | / | 0.45 |
| COC(=O)CNC(=O)C1CCC(c2ccc(Cl)cc2)CC1 (centres undefined) | -0.14 | -1.1 |
| CC1=C(C(=O)OC(C)C)C(c2ccccc2F)C(C#N)=C(N)O1 (centres undefined) | / | 1.9 |
| CCCCc1c(O)nc(SC)[nH]c1=O | 0.18 | -0.05 |

(cont.)
| molecule | CapD inh | AID504770 |
| --- | --- | --- |
| COc1ccccc1Oc1ccc2c(c1)C(=O)N(c1cccc(O)c1)C2=O | -0.15 | 0.05 |
| COc1ccccc1N1CCN(C(=O)CSc2nc3ccc(N4CCOCC4)cc3c(=O)n2Cc2ccccc2)CC1 | 0.24 | / |
| CCCC12CN3CC(CCC)(CN(C1)C3C(O)C(O)C(O)C(O)CO)C2=O (centres undefined) | 0.2 | -0.3 |
| Cc1ccc(S(=O)(=O)N(C2CC2)C2CCN(C)CC2)cc1 | -0.29 | / |
| O=C1c2ccccc2CCC1Sc1nnc(-c2ccccc2)o1 (centres undefined) | -0.08 | -0.15 |
| CSc1nc(N)nc(-c2ccc(C(F)(F)F)cc2)n1 | 0.19 | 0.1 |
| CC(C)(C(=O)Nc1ccccc1)N(Cc1ccccc1)C(=O)c1ccccc1 | 0.29 | -0.6 |
| COc1cc(/C=c2\sc3n(c2=NCCO)C(c2ccccc2)C(c2ccccc2)=NN=3)ccc1O (centres undefined) | 0.85 | -0.2 |
| Cc1ccc2c(c1)c1c3n2CCN=C3CCC1 | / | -0.65 |
| CCOC(=O)N1CCN(C(=O)CCCCCn2c(=S)[nH]c3ccc(Br)cc3c2=O)CC1 | -0.69 | / |
| C=CCN1C(=O)/C(=C2\SC(=S)N(CCS(=O)(=O)O)C2=O)c2cc(Br)ccc21 | -0.98 | / |
| NC(=O)c1ccc2nc(N)sc2c1 | / | -0.45 |
| CCn1c(COC(=O)CCc2c(C)nc3ncnn3c2C)nc2cc(S(=O)(=O)N(C)C)ccc21 | / | -0.15 |
| O=C(O)/C=C\C(=O)Nc1nn[nH]n1 | -0.68 | -0.5 |
| COc1ccc(N2C(=O)/C(=C\c3ccco3)N=C2SCC(=O)c2c(N)n(C)c(=O)n(C)c2=O)cc1Cl | / | -0.25 |
| CN1CCC(N(C)c2nc(-c3cccs3)nc3sc4c(c23)CCC4)CC1 | / | 0.8 |
| C/C(=N\N=C(/C)c1ccc(C)cc1C)c1ccc(C)cc1C | -0.96 | / |
| COc1ccc2c3c1O[C@H]1C[C@@H](O)C=C[C@@]31CCN(C)C2 | -1.2&5 | 1.9 |
| COc1cc(/C=C2\SC(=S)N(CCC(=O)Nc3sc4c(c3C(N)=O)CCCC4)C2=O)cc(OC)c1OC | -0.31 | / |
| Cc1ccc(C2=NNC3(S2)C(=O)Nc2ccccc23)cc1 (centres undefined) | -1.4 | 0.15 |
| CCCCN(C)C(=O)C1c2ccccc2C(=O)N(C)C1c1ccc(OC)cc1 (centres undefined) | -0.48 | / |
| CCOC(=O)c1ccc(N2C(=O)C=C(C)C2=O)cc1 | -0.24 | -0.5 |
| O=S(=O)(Cc1cccc(C(F)(F)F)c1)Cc1cccc(C(F)(F)F)c1 | 0.09 | -0.4 |
| O=C(c1cccs1)C(NS(=O)(=O)c1ccccc1)NS(=O)(=O)c1ccccc1 | / | -0.65 |
| COc1cc(OC)nc(Oc2cccnc2CN(C)c2ccccc2)n1 | -0.17 | / |
| N#CC1=C(N)OC2=C(C(=O)CC(c3ccco3)C2)C12C(=O)N(CC(=O)O)c1ccccc12 (centres undefined) | -0.39 | / |
| COc1ccc(C2C(C(=O)NCCCN3CCCCCC3)CCC(=O)N2c2ccc(OC)cc2)cc1 (centres undefined) | 0.33 | / |
| O=C(Nc1ccccc1)Nc1ccc2ncccc2c1 | 22 | -0.2 |
| CCOC(=O)C1C(=O)NC(SCC(=O)Nc2c(C)cccc2C)=C(C#N)C1c1ccccc1OCC (centres undefined) | -0.15 | / |
| COc1cccc(/C=[N+](/C)[O-])c1OCc1ccccc1 | 0.54 | -0.45 |
| O=C(NCCO)C(c1ccccc1)c1ccccc1 | -0.095 | 0.25 |
| CCOC(=O)c1c(C)oc2cc(Br)c(OCc3cccc(Cl)c3)cc12 | -0.37 | / |
| O=C(Cn1ncc(Cl)c(Cl)c1=O)NCCc1ccc(F)cc1 | / | -0.4 |
| CCOC(=O)C1CCN(c2cc3c(cc2NC(=O)c2ccccc2)n(C)c(=O)n3C)CC1 | 0.055 | -0.2 |
| CSc1ccccc1NC(=O)c1cnn2c(C(F)(F)F)cc(-c3ccco3)nc12 | 0.61 | 0.15 |
| Cc1cc(NS(=O)(=O)c2ccc(NC(=O)CCC(=O)O)cc2)no1 | 0.15 | / |
| NC(=O)C1(S(=O)(=O)c2ccccc2)CC1 | 0.56 | -0.4 |
| Cc1ccc(C(=O)C[n+]2cc(-c3ccccc3)n3c2CCCCC3)cc1 | -0.58 | / |
| COc1ccc(N2C(=O)CC(Sc3nc4c(cc3C#N)CCCC4)C2=O)cc1 (centres undefined) | 0.73 | / |
| Oc1ccccc1/C=N/n1c2ccccc2c2ccccc21 | 0.02 | 0.25 |
| [O-]/[N+](=C\c1cccs1)c1ccc(Cl)cc1 | / | -0.75 |
| CC1=C(C(=O)OC(C)C)C(c2ccccc2)NC(=S)N1 (centres undefined) | -0.8 | -1.8 |

High-throughput results: PubChem, ICCB-Longwood Screening Facility, Harvard Medical School
